# Screening data: PubChem BioAssay, Emory University Molecular Libraries Screening Center
# Measles inh: inhibitors of measles virus growth in cells, primary screen, measles RdRp inhibitor project, cell-based, single point, HTS | infected Vero cells, GFP fluorescence, 64 h; stronger effect = lower value | z-score (concentration not given with the values) | actives 0.1% (n = 33,000) | AID 745, 2007;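 active means z-score under -3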;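 further: score is relative to mean and SD of the compound wells of a plate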
# Starred values were filed as active, the others as inactive. Some of the compounds tested; the hit share may differ from the screen's.
SMILES,Measles inh
N#Cc1c(NC(=O)C(F)(F)F)sc2c1CCC2,-0.04
CC(C)C(=O)N(Cc1ccc(C(C)C)cc1)C1CCS(=O)(=O)C1 (stereo unspecified),-0.3
Cc1cccn2cc(-c3cccc(NS(=O)(=O)c4ccc(F)cc4)c3)nc12,-1.56
C=CCN(CC=C)C(=O)c1c(-c2ccccc2Cl)noc1C,-0.65
COc1ccc(C2NC(=S)NC(C)=C2C(=O)Nc2ccccc2C)cc1OC (stereo unspecified),0.23
CC(=O)OCCN(C)c1cc(SC(C)C)c2nonc2c1[N+](=O)[O-],-0.56
CCN(CCCNC(=O)Cc1cn(C)c2ccccc12)c1ccccc1,-1.26
COc1ccc(NC2=Nc3cccc4cccc2c34)cc1,0.04
CC(C)CCC1=NN(C(=O)c2ccccc2Br)C(O)(C(F)(F)F)C1 (stereo unspecified),-0.85
CCOC(=O)C1=C(C)NC2=C(C(=O)CC(c3ccccc3)C2)C1c1ccc(OCc2ccccc2)c(OC)c1 (stereo unspecified),-0.29
COC(=O)c1ccccc1NC(=O)c1ccc([N+](=O)[O-])o1,-1.59
Cc1ccc2nsnc2c1S(=O)(=O)NCc1ccncc1,0.3
CCOC(=O)c1c(C)n(-c2ccccc2)c2c1cc(OC(=O)CC)c1ccccc12,0.35
COC(=O)c1cccc(Nc2nc(-c3ccccc3)nc3ccccc23)c1,-0.32
Cc1cc(C)cc(NC(=O)CCC(=O)Nc2cc(C)cc(C)c2)c1,0.93
Cc1ccc2oc(-c3ccc(NC(=O)c4ccc(Cl)c([N+](=O)[O-])c4)cc3O)nc2c1,-0.26
Cc1cccc(OCCNC(=O)c2ccc(Oc3ccc(C(F)(F)F)cc3[N+](=O)[O-])cc2)c1,-0.16
Cc1cccc(NC(=O)CSc2nc3c(cnn3-c3ccc(F)cc3)c(=O)[nH]2)c1,0.36
COc1ccc(S(=O)(=O)N2CCCC2)cc1OC,-0.42
O=C(O)CN1C(=O)c2cccc3c(Br)ccc1c23,0.1
O=C(Nc1cc2c(ccc3ccccc32)oc1=O)c1ccc(F)cc1,-0.74
Cc1cc(Cl)ccc1OCC(=O)Nc1ccc(C(=O)OC2CCCCC2)cc1,-0.08
CCn1cnc2sc(C(=O)Nc3ccc(OC)c(OC)c3)c(C)c2c1=O,0.15
O=C(Oc1ccc(O)c2c1C(=O)c1ccccc1C2=O)c1ccccc1,0.16
COc1ccc(C)cc1Nc1nc(C)nc2sc(C)c(C)c12,2
O=C1C(=O)N(c2ccccc2)C(c2ccccc2)/C1=C(\O)c1ccc(Br)cc1 (stereo unspecified),-0.05
Cc1ccc(C2CC(C(F)(F)F)n3ncc(C(=O)NC(C)C)c3N2)cc1 (stereo unspecified),2.02
COc1ccc(Nc2c(-c3ccc(OC)cc3)nc3cnccn23)cc1,-0.27
COc1cc2c(=O)n(-c3ccc(C)cc3)c(=O)n(CC(=O)Nc3ccc4c(c3)OCCO4)c2cc1OC,-0.2
O=C(NCc1cccs1)c1noc2c1CCCCC2,0.94
COc1ccc(Cl)cc1NC(=O)Cn1c(=O)n(-c2cc(C)cc(C)c2)c(=O)c2sccc21,-0.64
CCc1cc2c(=O)c(-c3ccc4c(c3)OCO4)c(C)oc2cc1OC,0.25
Brc1ccc(-c2nn3c(-c4ccccc4)cn4c3c2CCCC4)cc1,-0.15
COc1ccc2c(-c3ccccc3)cc(N3CCOCC3)nc2c1,-0.14
O=C1c2ccccc2NC(c2ccccc2F)N1c1ccc(Cl)cc1 (stereo unspecified),0.28
O=C(NCc1cccnc1)c1nn2c(c1Cl)NC(c1ccccc1)CC2C(F)(F)F (stereo unspecified),-0.44
CCOC(=O)c1c(NC(=O)C2CCCCC2)sc(C(=O)Nc2ccccc2F)c1C,1.99
O=C1C(Nc2ccccc2)=CC(c2ccc3c(c2)OCO3)N1c1ccccc1 (stereo unspecified),0.15
CC1CCN(S(=O)(=O)c2ccc3ncn(CC(=O)Nc4ccccc4C(F)(F)F)c(=O)c3c2)CC1,1.44
COc1ccc(C2C=C(c3ccc(Cl)cc3OC(F)F)Nc3ncnn32)cc1 (stereo unspecified),-0.19
CCCn1c(NCc2cc(Br)ccc2O)nc2ccccc21,0.49
O=C(Nc1nnc(-c2ccccc2Cl)o1)c1ccc(S(=O)(=O)N2CCCc3ccccc32)cc1,0.28
O=C(Nc1ccc2nc(NC(=O)C3CCCCC3)sc2c1)c1cccs1,2.02
CC1CCCC(C)N1C(=O)CSc1nc(-c2cccs2)cc(C(F)(F)F)n1 (stereo unspecified),0.93
CCOC(=O)c1cnc2ccc(C(=O)OC)cc2c1N1CC2(C)CC1CC(C)(C)C2 (stereo unspecified),0.57
Cc1cccc(C)c1NC(=O)Cn1c(=O)n(CC2CCC(C(=O)NC3CCCC3)CC2)c(=O)c2ccccc21 (stereo unspecified),-0.53
Nc1c(C(=O)Nc2ccccc2)sc2nc3c(c(-c4ccco4)c12)CCC3,-1.25
CCn1c(CCCNC(=O)c2cccs2)nc2ccccc21,-0.33
CCOC(=O)c1cccc(NC(=O)COc2ccc(OC)cc2)c1,1.99
CC1=C(C(=O)Nc2cccc(C(F)(F)F)c2)C(c2cccc(Br)c2)C2=C(CCCC2=O)N1 (stereo unspecified),-0.03
O=[N+]([O-])c1ccc(-c2nc(=S)[nH][nH]2)cc1,1.25
NCCCNC(=O)c1c(O)c2cccc3c2n(c1=O)CC3,0.84
COc1ccc(/C(O)=C2\C(=O)C(=O)N(CCCN(C)C)C2c2ccc(Cl)cc2)cc1 (stereo unspecified),-0.84
COc1ccc2c(c1)CCc1c(C(=O)Nc3cc(Cl)ccc3OC)noc1-2,0.76
Cc1sc2ncn(CC(=O)NCC(=O)NC3CCCC(C)C3C)c(=O)c2c1C (stereo unspecified),-2.31
CCOCCOC(=O)C1=C(C)NC2=C(C(=O)CCC2)C1c1cc(OC)c(OC)cc1Br (stereo unspecified),0
O=C(CSc1nnc2c(n1)[nH]c1ccccc12)NCc1ccco1,-0.64
Cc1cccc(CS(=O)(=O)Cc2ccc(C(=O)NCc3ccc(F)cc3)o2)c1,-1.77
Cc1ccc(NC(=O)CN(c2cc(C(F)(F)F)ccc2Cl)S(=O)(=O)c2ccccc2)c(C)c1,-0.46
O=C(Oc1ccc(N(C(=O)c2ccncc2)S(=O)(=O)c2ccc(F)cc2)cc1)c1ccncc1,-0.75
# Next records
SMILES,Measles inh
Cc1ccc(N(CC(=O)N2CCOCC2)S(=O)(=O)c2ccc(F)cc2)cc1,-0.22
COc1n[nH]c(C(=O)O)c1[N+](=O)[O-],0.85
CCOC(=O)C1=C(C)NC2=C(C(=O)CC(c3ccccc3)C2)C1c1cccnc1 (stereo unspecified),-0.14
CCOc1ccc(C(=O)Nc2ccc3nn(-c4ccc(OC)cc4)nc3c2)cc1[N+](=O)[O-],-0.22
CC1=C(C(=O)N2CCCCC2)C(c2ccc(C(F)(F)F)cc2)C2=C(CC(C)(C)CC2=O)N1 (stereo unspecified),0.37
COc1ccccc1NC(=O)C1=C(C)Nc2nc3ccccc3n2C1c1ccc(Br)cc1 (stereo unspecified),-0.51
O=C1CCC(=O)N1c1ccc(S(=O)(=O)Nc2ccc(Br)cc2)cc1,0.73
O=C(Nc1nnc(-c2ccccc2)s1)c1ccc(Cl)c(S(=O)(=O)N2CCOCC2)c1,0.18
CC1=NN(C(=O)c2ccc([N+](=O)[O-])cc2)C(O)(C(F)(F)F)C1 (stereo unspecified),-0.66
CC1CCN(S(=O)(=O)c2ccc3ncn(CC(=O)NCCCN4CCOCC4)c(=O)c3c2)CC1,-0.56
COc1cc2nc(=S)n3c(c2cc1OC)NC(CCC(=O)N1CCN(C2CCCCC2)CC1)C3=O (stereo unspecified),0.74
CC(C)(C)n1nc2c(c1NC(=O)c1ccccc1[N+](=O)[O-])CSC2,-0.22
O=C(NCc1ccccc1Cl)c1cc(S(=O)(=O)N2CCc3ccccc32)ccc1F,-0.34
CCOC(=O)CSc1nc2c(c(=O)n1C)C1(CCCC1)Cc1ccccc1-2,0.24
Cc1c(CCNC2=CC(=O)OC23CCCCC3)c2ccccc2n1C,0.14
Cc1cccc(CCNC(=O)c2cn(C)c(=O)c3c2c2ccccc2n3C)c1,0.03
COc1ccc(OC(=O)c2ccc(N3C(=O)C4C5CCC(C5)C4C3=O)cc2)cc1 (stereo unspecified),0.48
CCN(CC)c1ccc(C2Nc3ccc4ncccc4c3C3=C2C(=O)CC(C)(C)C3)cc1 (stereo unspecified),-0.7
COc1ccc(C(=O)NC(NCCOC23CC4CC(CC(C4)C2)C3)(C(F)(F)F)C(F)(F)F)cc1,-0.99
CC1CCCN(S(=O)(=O)c2ccc(C(=O)Nc3nc4c(s3)CSc3ccccc3-4)cc2)C1 (stereo unspecified),-0.12
COc1cc(C(=O)N2CCN(c3cccc(Cl)c3)CC2)cc(OC)c1OC,0.39
O=c1oc2c3c(nn2c2ccccc12)CCCC3,0.64
CCN1C(=O)c2cccc3c(S(=O)(=O)N4CCCC4)ccc1c23,-0.75
CCC(=O)N1c2cc(C)ccc2C(=C2SC(C(=O)OC)=C(C(=O)OC)S2)C(=S)C1(C)C,-0.23
CCCC12CN3CC(C)(CN(C1)C31C(=O)Nc3ccc(Br)cc31)C2=O (stereo unspecified),-0.55
CC1CCc2c(sc(NC(=O)c3ccccc3F)c2C(=O)NC(C)c2ccccc2)C1 (stereo unspecified),0
CC(=O)N(CCC1(c2ccccc2)CCOC(C)(C)C1)Cc1ccc(N(C)C)cc1 (stereo unspecified),-0.61
CCOC(=O)C1CCN(c2ccc(C(=O)O)cc2[N+](=O)[O-])CC1,-0.37
COc1ccc(-c2cnnn2-c2ccc(NC(=O)c3ccc(S(=O)(=O)N4CCCC4)cc3)cc2)cc1OC,-1.85
COc1ccc(CC(=O)Nc2cccc(-c3nc4cc5ccccc5cc4[nH]3)c2)cc1,-2.11
Cc1ccc(CNC(=O)CCS(=O)(=O)c2ccc(Br)s2)o1,1.82
COC(=O)CSc1nc(-c2ccc(OC)cc2)nc2c1c(=O)n(C)c(=O)n2C,0.34
Cc1cc(NC(=O)CSc2nnc(-c3ccco3)o2)no1,-0.85
CCc1ccc(CNC(=O)C2CCN(S(=O)(=O)N3CC(C)CC(C)C3)CC2)cc1 (stereo unspecified),-0.92
O=C(Nc1nc2ccc([N+](=O)[O-])cc2s1)c1ccc(S(=O)(=O)N2CCCC2)cc1,-0.64
CCCC(=O)NCCCc1nc2ccccc2n1C,0.02
Cc1sc2c(c1C)c(=O)n(Cc1ccccc1)c(=O)n2CC(=O)NCc1ccco1,-0.68
COc1ccc(Nc2ccc(-c3nn(C)c(=O)c4ccccc34)cc2[N+](=O)[O-])cc1,0.39
COc1ccc([N+](=O)[O-])cc1NC(=O)c1sc2ncn(CC(=O)N3CCCCC3C)c(=O)c2c1C (stereo unspecified),-0.56
CC1CC(NS(=O)(=O)c2cccs2)CC(C)(C)C1 (stereo unspecified),-1.26
COc1ccc(OC)c(NC(=O)CSc2nc3ccccc3c3nc4ccccc4n23)c1,0.96
CCCCc1ccc(-c2nc3ccccc3c(=O)o2)cc1,-1.28
O=C(c1ccccc1Cl)N1CCCc2ccccc21,-0.88
Cc1ccccc1NC(=O)CCS(=O)(=O)c1ccc(Br)s1,-0.07
CCc1ccc(C2=CC(c3cc(OC)ccc3OC)n3ncnc3N2)cc1 (stereo unspecified),-0.37
COc1cc(Cl)c(C)cc1NC(=O)Cn1cnc2sc(C)c(S(=O)(=O)N3CCC(C)CC3)c2c1=O,0.74
Cc1ccc(CNC(=O)Cn2c(=O)[nH]c3ccsc3c2=O)cc1,-0.51
COc1ccc(S(=O)(=O)N2CCN(C(=O)c3ccncc3)CC2)cc1,-0.35
Cc1nc2nc(SCC(=O)NCCC3=CCCCC3)nn2c(C)c1Cc1ccc(Cl)cc1,-0.42
CCOC(=O)C1CCC(CN(Cc2ccccc2C)S(=O)(=O)c2ccc(F)c(C)c2)CC1 (stereo unspecified),0.34
O=C(Nc1ccc(Cl)cc1)c1ccn[nH]1,-1.56
COc1cccc(C(=O)CC2(O)C(=O)Nc3ccc(Br)cc32)c1 (stereo unspecified),-0.12
CCOc1cccc2cc(C(=O)NCc3ccccc3)c(=N)oc12,-0.82
COc1cccc(-n2c(=O)c3sccc3n(Cc3ccc(C)cc3)c2=O)c1,-1.08
N#Cc1c(C(F)(F)F)cc(-c2cccs2)nc1SCC(=O)Nc1ccc(S(N)(=O)=O)cc1,0.06
CCOc1cccc(C2C(C(=O)OCC3CCCO3)=C(C)NC3=C2C(=O)CCC3)c1 (stereo unspecified),0.19
O=C1c2ccc([N+](=O)[O-])cc2C(=O)N1c1ccc([N+](=O)[O-])cc1,0.44
CCN(CC)C(=O)CNS(=O)(=O)c1cccs1,1.75

# 16 entries from above, tab-delimited.
SMILES	Measles inh
O=C(c1ccccc1Cl)N1CCCc2ccccc21	-0.88
Cc1ccccc1NC(=O)CCS(=O)(=O)c1ccc(Br)s1	-0.07
CCc1ccc(C2=CC(c3cc(OC)ccc3OC)n3ncnc3N2)cc1 (stereo unspecified)	-0.37
COc1cc(Cl)c(C)cc1NC(=O)Cn1cnc2sc(C)c(S(=O)(=O)N3CCC(C)CC3)c2c1=O	0.74
Cc1ccc(CNC(=O)Cn2c(=O)[nH]c3ccsc3c2=O)cc1	-0.51
COc1ccc(S(=O)(=O)N2CCN(C(=O)c3ccncc3)CC2)cc1	-0.35
Cc1nc2nc(SCC(=O)NCCC3=CCCCC3)nn2c(C)c1Cc1ccc(Cl)cc1	-0.42
CCOC(=O)C1CCC(CN(Cc2ccccc2C)S(=O)(=O)c2ccc(F)c(C)c2)CC1 (stereo unspecified)	0.34
O=C(Nc1ccc(Cl)cc1)c1ccn[nH]1	-1.56
COc1cccc(C(=O)CC2(O)C(=O)Nc3ccc(Br)cc32)c1 (stereo unspecified)	-0.12
CCOc1cccc2cc(C(=O)NCc3ccccc3)c(=N)oc12	-0.82
COc1cccc(-n2c(=O)c3sccc3n(Cc3ccc(C)cc3)c2=O)c1	-1.08
N#Cc1c(C(F)(F)F)cc(-c2cccs2)nc1SCC(=O)Nc1ccc(S(N)(=O)=O)cc1	0.06
CCOc1cccc(C2C(C(=O)OCC3CCCO3)=C(C)NC3=C2C(=O)CCC3)c1 (stereo unspecified)	0.19
O=C1c2ccc([N+](=O)[O-])cc2C(=O)N1c1ccc([N+](=O)[O-])cc1	0.44
CCN(CC)C(=O)CNS(=O)(=O)c1cccs1	1.75
